Screening data: PubChem, Vanderbilt University
GIRK2 act: activators of human GIRK2 potassium channels; G protein-activated inward rectifier potassium channel 2 (Homo sapiens), P48051; hit rate 0.05% among 63,000; AID 1259325, 2017; calls only for hits at 25 µM; HEK293-GIRK2 thallium flux, Thallos fluorescence;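 active = among the strongest 0.2% of first-round signals and kept after retests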;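 also: first round at about 10 µM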
Target sequence (P48051 whole entry, looked up): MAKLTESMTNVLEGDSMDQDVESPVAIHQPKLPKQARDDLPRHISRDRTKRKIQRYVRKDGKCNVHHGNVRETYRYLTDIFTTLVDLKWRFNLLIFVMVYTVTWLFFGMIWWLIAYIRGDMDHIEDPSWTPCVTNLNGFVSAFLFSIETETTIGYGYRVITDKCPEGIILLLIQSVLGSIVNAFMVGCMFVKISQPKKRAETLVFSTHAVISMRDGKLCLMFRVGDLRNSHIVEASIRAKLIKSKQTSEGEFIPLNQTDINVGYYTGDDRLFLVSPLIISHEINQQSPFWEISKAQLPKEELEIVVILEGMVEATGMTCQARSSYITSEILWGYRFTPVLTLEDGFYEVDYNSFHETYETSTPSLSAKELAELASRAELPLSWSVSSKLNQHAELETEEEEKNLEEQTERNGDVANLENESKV
Calls only; i = inactive. A portion of the library. The share of hits here may be higher or lower than overall.

The first seven compounds (preview)
GIRK2 act	SMILES
i	Cc1nn(C)c(C)c1CCC(=O)Nc1cc2ccccc2oc1=O
i	COC(=O)CSc1nnc(-c2ccc(S(C)(=O)=O)cc2)o1
i	O=C(c1ccco1)N1CCN(Cc2nc(-c3ccc(N4CCCCCC4)nc3)no2)CC1
i	O=C1CC(c2nc3ccccc3n2CCOc2ccccc2)CN1c1ccccc1 (configuration not stated)
i	CSc1cccc(C(=O)N(CCCN2CCOCC2)c2nc3c(C)cc(Cl)cc3s2)c1
i	O=C(CCS(=O)(=O)c1ccccc1)Nc1ccc(Cl)c(N2CCCS2(=O)=O)c1
i	COCCCNC(=O)Cc1nc(-c2ccncc2)n[nH]1

This part in full, previewed entries included:
GIRK2 act	SMILES
i	Cc1nn(C)c(C)c1CCC(=O)Nc1cc2ccccc2oc1=O
i	COC(=O)CSc1nnc(-c2ccc(S(C)(=O)=O)cc2)o1
i	O=C(c1ccco1)N1CCN(Cc2nc(-c3ccc(N4CCCCCC4)nc3)no2)CC1
i	O=C1CC(c2nc3ccccc3n2CCOc2ccccc2)CN1c1ccccc1 (configuration not stated)
i	CSc1cccc(C(=O)N(CCCN2CCOCC2)c2nc3c(C)cc(Cl)cc3s2)c1
i	O=C(CCS(=O)(=O)c1ccccc1)Nc1ccc(Cl)c(N2CCCS2(=O)=O)c1
i	COCCCNC(=O)Cc1nc(-c2ccncc2)n[nH]1
i	CCOc1ccc(-n2c(SCc3nc(-c4ccc(C)cc4)no3)nc3[nH]ncc3c2=O)cc1
i	Cc1cn2c3c(=O)n(Cc4ccccc4)c(=O)n(C)c3nc2n1-c1ccc(S(N)(=O)=O)cc1
i	CN1C(=O)C(=C2C=C(c3ccccc3)N(Cc3ccco3)C3=C2CCCC3)C(=O)N(C)C1=O
i	O=C(NCC1CCCO1)C1CCN(c2nc3c(-c4ccccc4F)csc3c(=O)[nH]2)CC1 (configuration not stated)
i	COc1ccc(-c2cc(SCC(=O)Nc3c(C)cc(C)cc3C)ncn2)cc1
i	O=c1c2scc(-c3cccc(Cl)c3)c2ncn1Cc1cccc(F)c1
i	COc1ccccc1Oc1coc2cc(OC(=O)c3ccccc3F)ccc2c1=O
i	N#CC(c1nc2ccccc2nc1N1CCCCC1)S(=O)(=O)c1cccs1 (configuration not stated)
i	CCNC(=O)NCCN1CCCC1c1ccc(OC)cc1 (configuration not stated)
i	Cn1cc(C(=O)NCc2cccc(Br)c2)c(S(=O)(=O)N2CCCCC2)n1
i	Cc1ccc(-n2nnc3c(N4CCN(C(=O)c5ccccc5Br)CC4)ncnc32)cc1
i	O=C(CN1C(=O)c2ccccc2C1=O)N1CCN(C(=O)C2CC2c2ccc(F)cc2)CC1 (configuration not stated)
i	O=C(CSc1nnc2ccc3ccccc3n12)N1CCC(c2noc3ccc(F)cc23)CC1
i	CCN(CC)CCCNC(=O)C(=O)c1cn(CC(=O)N2CCOCC2)c2ccccc12
i	O=C1CCC(C(=O)NCC2CCC(c3nc4ccccc4[nH]3)CC2)N1 (configuration not stated)
i	O=C(NCCc1nc(C2CC2)cc(C(F)(F)F)n1)c1cccc(Cl)c1
i	CCOc1ccc(-c2cc3c(=O)n(CC(=O)Nc4cc(OC)cc(OC)c4)ncn3n2)cc1
i	O=c1cc(CN2CCN(Cc3ccccc3)CC2)c2c(ccc3ccccc32)o1
i	C=CCNc1nn(CC(=O)NCc2ccc(C)cc2)c(N)c1-c1nc(-c2ccc(Cl)cc2)no1
i	CC(O)CSc1nc2c(c(=O)n(Cc3ccc(Cl)cc3)c(=O)n2C)n1C (configuration not stated)
i	Nc1nc(Nc2ccc(Oc3ccccc3)cc2)ncc1[N+](=O)[O-]
i	COc1ccc(-n2nnc(C(=O)Nc3ccccc3C(C)C)n2)cc1
i	Cc1ccc(C)c(NC(=O)CN2C(=O)C3(SCC(=O)N3c3ccc(F)c(F)c3)c3ccccc32)c1 (configuration not stated)
i	O=C(CCCn1c(=O)[nH]c2cc3c(cc2c1=O)OCO3)Nc1ccc(Cl)c(C(F)(F)F)c1
i	Cc1noc(C)c1CCC(=O)N1CCC(COCc2ccc(Cl)cc2)CC1
i	O=S(=O)(Cc1ccc(C(F)(F)F)cc1)NCC1(O)CCOc2ccccc21 (configuration not stated)
i	CCNC(=O)N1CCN(Cc2nnnn2-c2ccc(Cl)cc2)CC1
i	O=C(COc1ccccc1F)NCC1CCN(C(=O)c2cccnc2)CC1
i	Cc1ccc(NC(=O)CN2CC(c3nc(-c4cccs4)no3)C2)cc1Cl
i	O=C(Nc1ccc2c(=O)c3cccc(Cl)c3oc2c1)c1cccs1
i	COc1ccc(-n2ccc(=O)c(-c3nc(-c4ccc(C(F)(F)F)cc4)no3)n2)cc1
i	CC(C)N(CC#CCNC(=O)c1ccccc1Br)C(C)C
i	CC(Oc1ccccc1)C(=O)N1CCc2cc(S(=O)(=O)N3CCOCC3)ccc21 (configuration not stated)
i	COCCn1c(C(=O)Nc2ccc(C(C)C)cc2)cc2c(=O)n(C)c(=O)n(C)c21
i	COc1ccccc1CCNC(=O)C1CSCCC(=O)N1 (configuration not stated)
i	O=C(c1cccc(Cl)c1)N1CC(Oc2nc3c(F)cccc3s2)C1
i	CC(=O)c1ccc(N2CCN(C(=O)CCCn3c(=O)[nH]c4ccccc4c3=O)CC2)cc1
i	Cc1c(C(=O)Nc2ccc3c(c2)N(C(=O)c2cccs2)CC3)cnn1-c1ccccc1
i	COc1ccc(SCC2CCN(C(=O)CSc3ccc(F)cc3)CC2)cc1
i	COc1ccc(NC(=O)Cn2nc(N3CCSCC3)c3ccccc3c2=O)cc1Cl
i	COc1ccc(-c2coc3cc(OC(=O)c4c(OC)cccc4OC)ccc3c2=O)cc1
i	COC(=O)C1=C(C)Nc2ncnn2C1c1ccccc1OC(F)F (configuration not stated)
i	COCCn1c(=O)c2c(nc3n(-c4ccccc4)c(C)c(C)n23)n(C)c1=O

Further compounds
GIRK2 act	SMILES
i	COc1ccc(N2CC(C)Cn3c2nc2c3c(=O)n(Cc3ccc(C)cc3)c(=O)n2C)c(OC)c1 (configuration not stated)
i	COc1ccc(-c2ccnc(SCC(=O)c3ccc4c(c3)OCO4)n2)cc1
i	Cn1cnnc1SCCNC(=O)C1CSCCC(=O)N1 (configuration not stated)
i	COc1ccc2c(c1)c1nc(SCC(=O)NCc3ccccc3Cl)n(C)c(=O)c1n2C
i	CC(C)c1cc(C(=O)O)nn1C1CCS(=O)(=O)C1 (configuration not stated)
i	COc1ccc2nc(-n3nc(C)cc3NC(=O)Cc3cccs3)sc2c1
i	COc1ccc(Br)cc1S(=O)(=O)N1CCCCCC1
i	O=C(CCn1cnc2c([nH]c3ccc(F)cc32)c1=O)N1CCN(c2cccc(C(F)(F)F)c2)CC1
i	CC1Oc2ccccc2CN(c2cc(Cl)ccc2F)C1=O (configuration not stated)
i	CN(C)S(=O)(=O)N1CCN(c2cc(-n3cccn3)ncn2)CC1

An excerpt from the list above:
GIRK2 act	SMILES
i	COc1ccc(N2CC(C)Cn3c2nc2c3c(=O)n(Cc3ccc(C)cc3)c(=O)n2C)c(OC)c1 (configuration not stated)
i	COc1ccc(-c2ccnc(SCC(=O)c3ccc4c(c3)OCO4)n2)cc1
i	Cn1cnnc1SCCNC(=O)C1CSCCC(=O)N1 (configuration not stated)
i	COc1ccc2c(c1)c1nc(SCC(=O)NCc3ccccc3Cl)n(C)c(=O)c1n2C
i	CC(C)c1cc(C(=O)O)nn1C1CCS(=O)(=O)C1 (configuration not stated)
i	COc1ccc2nc(-n3nc(C)cc3NC(=O)Cc3cccs3)sc2c1

Next records follow.
GIRK2 act	SMILES
i	COc1ccc(Cl)cc1NC(=O)Nc1cnc(N2CCN(c3ccccn3)CC2)nc1
i	CCN(CC)S(=O)(=O)c1ccc(C(=O)Nc2ccc(Cl)c3ncsc23)cc1
i	COc1ccc(CNC(=O)C2CCN(c3ncnc4c3sc3ncccc34)CC2)cc1
i	O=C(NCCC(O)C1CC1)C12CC3CC(CC(C3)C1)C2 (configuration not stated)
i	CC[N+]1(CC(O)COC2CC(C)CC(C)(C)C2)CCOCC1 (configuration not stated)
i	CC(C)N(C(=O)CSc1nnc(N2CCN(c3ccccc3)CC2)s1)C(C)C
i	CCCCN1CC(c2nc3ccccc3n2CCOc2ccc(Cl)cc2)CC1=O (configuration not stated)
i	CC1CCN(c2cc(-n3cnc(C(=O)N4CCN(c5ccccn5)CC4)c3)ncn2)CC1
i	COc1ccc(NC(=O)c2ccco2)cc1N1CCCC1=O
i	O=C(CCn1c(=S)[nH]c2cc3c(cc2c1=O)OCO3)NCCc1ccccc1Cl
i	COCCn1c(=O)c2c(nc3n2CCN3c2cccc(C)c2C)n(C)c1=O
i	CN(C)C(=O)C(CCN1CCC(O)(c2ccc(Cl)cc2)CC1)(c1ccccc1)c1ccccc1
i	COC(=O)c1ccc(S(=O)(=O)NCc2nc(C)no2)cc1
i	CCc1ccc(S(=O)(=O)NCC2CCN(C3CCCC3)CC2)cc1
i	CCC(=O)Oc1ccc2c(c1)O/C(=C\c1sccc1C)C2=O
i	O=C(c1cccc(C(F)(F)F)c1)N1CCC(c2nnc(C3CC3)s2)CC1
i	O=C(c1ccccc1Cl)N1CCC(CSCc2ccco2)CC1
i	Cc1noc(CNC(=O)C2CCN(C(=O)Nc3ccccc3C(F)(F)F)CC2)n1
i	O=c1ccc(-c2nc(-c3ccsc3)no2)cn1Cc1ccccc1C(F)(F)F
i	O=C(CCn1cnc2c([nH]c3ccc(F)cc32)c1=O)NCCc1ccc(Cl)cc1

Random excerpt: three entries already listed.
GIRK2 act	SMILES
i	O=c1ccc(-c2nc(-c3ccsc3)no2)cn1Cc1ccccc1C(F)(F)F
i	O=C(c1cccc(C(F)(F)F)c1)N1CCC(c2nnc(C3CC3)s2)CC1
i	CN(C)C(=O)C(CCN1CCC(O)(c2ccc(Cl)cc2)CC1)(c1ccccc1)c1ccccc1

Following part.
GIRK2 act	SMILES
i	CCC(O)C12CC3CC(CC(C3)C1)C2 (configuration not stated)
i	Cc1nnsc1C(=O)Nc1cc(OCc2ccc3c(c2)OCO3)ncn1
i	O=C(NCC1(CO)CC1)c1cccc(Br)c1
i	O=C(NCc1cnn2ccccc12)c1ccccc1Cl
i	C/C=C(/C)C(=O)O[C@H]1C=C(C)C[C@H](OC(=O)c2ccc(O)cc2)C2[C@](O)(C(C)C)CC[C@@]21C (some centres not stated)
i	COc1ccc(Cl)cc1NC(=O)c1coc(NC(=O)C2CC2)n1
i	Cc1ccc2nc(C3CN(S(=O)(=O)c4c(C)noc4C)C3)[nH]c2c1
i	COc1ccc(NC(=O)Cn2c(=O)n(-c3ccc(CC(=O)NC4CC4)cc3)c(=O)c3ccccc32)cc1
i	O=C(Cc1ccc(NC(=O)CSC2CCCC2)cc1)NCC(F)(F)F
i	O=C(CN1CCN(c2ccc(F)c(F)c2)C1=O)NC1CCSC1=O (configuration not stated)

Reformatted comma-delimited: part of the list above
Structure,GIRK2 act
CC(=O)c1ccc(N2CCN(C(=O)CCCn3c(=O)[nH]c4ccccc4c3=O)CC2)cc1,i
CCCCN1CC(c2nc3ccccc3n2CCOc2ccc(Cl)cc2)CC1=O (configuration not stated),i
C/C=C(/C)C(=O)O[C@H]1C=C(C)C[C@H](OC(=O)c2ccc(O)cc2)C2[C@](O)(C(C)C)CC[C@@]21C (some centres not stated),i

The list continues.
GIRK2 act	SMILES
i	O=c1ccn(-c2ccccc2)nc1-c1nc(-c2cccs2)no1
i	COc1ccccc1CNC(=O)Cn1nc2c(N3CCSCC3)nccn2c1=O
i	O=C(CSc1nc2c(sc3ncccc32)c(=O)n1Cc1ccccc1)NC1CCCCC1
i	C/C=C(\C)C(=O)O[C@H]1C(=O)C(CO)=C[C@H](OC(C)=O)[C@@H]1C(C)C
i	Cc1nc(-c2cccs2)sc1C(=O)N1CCN(c2cc(-c3ccccc3)ncn2)CC1
i	O=C(Nc1cnc(-n2ccnc2)nc1)c1c(F)cccc1F
i	COC(=O)c1ccccc1NC(=O)Cn1cccc(S(=O)(=O)N2CCOCC2)c1=O
i	CCOC(=O)Cn1cc(-c2nc(-c3ccsc3)no2)ccc1=O
i	O=C(OC1CN(c2nc3c(Cl)cccc3s2)C1)C1CCC1
i	COC(=O)c1ccc(C2c3c(oc4cc(C)c(C)cc4c3=O)C(=O)N2CCN(C)C)cc1 (configuration not stated)
i	O=C(C1CC(=O)N(c2ccc(F)cc2)C1)N1CCC(CSc2ccccn2)CC1 (configuration not stated)
i	O=C(CCc1csc(NC(=O)c2ccc(F)cc2)n1)Nc1nccs1
i	Cc1cc(F)ccc1NC(=O)Cn1c(=O)cc(-c2nc(C3CC3)no2)c2ccccc21
i	CC1CC2C3CCC4=CC(=O)C=CC4(C)C3(F)C(O)CC2(C)C1(O)C(=O)CO (configuration not stated)
i	COc1ccccc1C1(CNC(=O)C(=O)Nc2cccc(N3CCCCC3=O)c2)CCOCC1
i	COc1cccc(OC)c1C(=O)NCCN1CCn2cc(OC)c(=O)cc2C1=O
i	COc1ccc(Cn2cnc3c4ccccc4n(CC(=O)NCc4ccccc4)c3c2=O)cc1
i	CC(=O)COc1ccc2c(c1)O/C(=C\c1cc(Br)cc3c1OCOC3)C2=O
i	O=C(NCC1CCN(C(=O)c2ccncc2)CC1)c1ccc(F)c(F)c1
i	Cc1ccc(-c2noc(CCn3c(=O)[nH]c4cc5c(cc4c3=O)OCO5)n2)cc1
i	O=C(C1=COCCO1)N1CC(Oc2nc3c(C(F)(F)F)cccc3s2)C1
i	COc1ccc(C2CC3C4NN=C(SCC(=O)Nc5ccc(C)c(Cl)c5)N4C=CN3N2)cc1 (configuration not stated)
i	CNC(=O)Cc1ccc(-n2c(=O)c3ccccc3n(CC(=O)Nc3ccc(F)cc3)c2=O)cc1
i	Cc1ccc(C(=O)NC2=N/C(=C(/C#N)C(=O)N3CCCCC3)c3ccccc32)cc1
i	O=C(Nc1cccc(N2CCCS2(=O)=O)c1)c1ccccc1[N+](=O)[O-]
i	COc1cccc2cc(C(=O)NCc3cc(-c4cccs4)n(C4CCCC4)n3)c(=O)oc12
i	COc1ccc(C2C(C(=O)c3sc(C)nc3C)=C(O)C(=O)N2CCN(C)C)cc1 (configuration not stated)
i	O=c1ccc(S(=O)(=O)N2CCOCC2)cn1Cc1cc(F)cc(F)c1
i	CCC(C(=O)NCCNc1cc(Nc2ccccn2)ncn1)c1ccccc1 (configuration not stated)
i	Cc1ccc(C(O)CNC(=O)C2(c3ccc(Cl)cc3)CCCC2)o1 (configuration not stated)
i	COc1ccc(-c2cc3ccc(OS(C)(=O)=O)cc3oc2=O)c(OC)c1
